Screening results deposited in PubChem BioAssay by ICCB-Longwood Screening Facility, Harvard Medical School.
CapD inh – blocks the Bacillus anthracis CapD enzyme; hit rate 0.23% among 140,000; z-score (concentration not given with the values); purified CapD enzyme, fluorescence intensity read-out; stronger effect = lower value; some hits fall short of the stated cut;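 active means z-score under -4 in either of two replicates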;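 further: stock transfer was 100 nL into about 40 µL; score is relative to mean and spread of the plate; one replicate is shown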
AID504770 – E. coli YBA685 growth inhibition, screen for V. cholerae RctB inhibitors | E. coli YBA685 rctB-dependent plasmid, OD600 growth, 3 h; stronger effect = lower value | z-score (concentration not given with the values) | hit rate 0.27% among 130,000 | AID 504770;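 active means z-score under -2 on both plates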;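 further: wells of about 30 µL received 100 nL stock; score is relative to mean and SD of the test wells; the first replicate is given; strong numbers were not always called active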
The depositor's hits bear a star; / = no result given; & = joins results of further samples.

SMILES	CapD inh	AID504770
C=CCOc1ccc(/C=C2\SC(=S)N(CC(=O)O)C2=O)cc1OC	-3.9	/
Cc1noc(C(=O)N2CCCC2)c1Cl	-0.45	-1.2
O=C(COC(=O)c1ccc2[nH]c3c(c2c1)CCCC3)c1ccc2c(c1)OCO2	/	-0.2
N#Cc1c(Nc2ccccc2)sc(C(=O)c2ccccc2)c1-n1cccc1	-0.12	/
Cc1noc(/C=C/c2cccs2)c1S(=O)(=O)N1CCCC(C(=O)Nc2nccs2)C1 (stereo unspecified)	-0.58	1
Cc1ccc(N/C(N)=N/c2nc(CSc3nnc(N)s3)cc(=O)[nH]2)cc1	-0.56	-0.3
c1ccc2c(NCCCNc3ncnc4ccccc34)ncnc2c1	-0.05	/
Cc1ccc(CNS(=O)(=O)c2ccc(F)c(C(=O)Nc3ccc(Br)cc3)c2)cc1	-0.43	/
O=C(O)c1ccc(N2N=C(C(F)(F)F)/C(=C/c3ccc(OC(=O)c4cccs4)cc3)C2=O)cc1	-0.07	-0.05
CCOC(=O)C1=CN(c2cc(C)ccc2C)C=C(C(=O)OCC)C1c1cc(OC)c(OC)cc1OC	7.9	/
CCOc1ccccc1N/C(SCc1cccc([N+](=O)[O-])c1)=C(/C#N)C(=O)NCCc1ccc(OC)c(OC)c1	-0.2	/
COC(CNC(=O)CC1C(=O)N(Cc2ccccc2)C(C)c2nc3ccccc3n21)OC (stereo unspecified)	0.36	0.1
CNc1ccccc1C(=O)NCc1cccs1	91	/
N#CC1=C(SCC(=O)N2CCOCC2)NC(=O)CC1c1ccccc1F (stereo unspecified)	0.09	-0.1
Nn1c(SCC(=O)N2CCCC2)nnc1-c1ccco1	/	0.85
CCN(/C=C/c1nnnn1-c1ccc(Br)cc1)CC	0.2	0.65
COCc1nc2ccc(C)cc2c2c1C(=O)N(NC(=O)C1(c3ccc(Cl)cc3)CCC1)C2=O	0.15	/
CCc1nc2c(cnn2-c2ccccc2)c(=O)n1-c1ccc(C)cc1	0.34	-0.3
O=C1CN(C(=O)Cn2ncc(Cl)c(Cl)c2=O)c2ccccc2N1	/	0.65
CN1CCc2c(n(CC(O)CNCc3ccccc3)c3ccccc23)C1=O (stereo unspecified)	-0.48	-0.3
Cn1c(=O)n(Cc2cccc(F)c2)c(=O)c2c1ncn2Cc1ccccc1	-0.48	/
Cc1c2cnn(-c3ccccc3)c(=O)c2c(C)n1CCCC(=O)NC1CCCCCC1	2.2	-0.4
Cc1ccc(-c2sc(=S)n3c4ccccc4c(=O)n(Cc4ccc(C#N)cc4)c23)cc1	0.29	0.1
c1ccc2sc(SCc3cn4ccsc4n3)nc2c1	/	0.05
O=C(CSc1nnc(CNC(=O)c2ccco2)n1-c1ccc(F)cc1)Nc1nc2ccccc2s1	-0.27	/
CC(=O)Nc1nc(SCC(C)C)n[nH]1	-0.085	0.1
CC(C)(C)c1nc(NCC2CCCO2)c2nnn(Cc3ccccc3Cl)c2n1 (stereo unspecified)	/	1.7
O=C1NC2=C(C(=O)CCC2)C(c2ccc(Cl)cc2)N1 (stereo unspecified)	/	-0.7
O=C(c1ccc(Cl)cc1)c1cccs1	-1.1	/
COC(=O)c1ccc(-c2ccco2)n1CC(=O)N1CCN(c2cccc(OC)c2)CC1	4.3	0.5
Cc1cc(C(=O)O/N=C(\N)c2cc(C)on2)no1	0.27	-0.6
Cc1ccc(OCCn2c(=O)oc3ccccc32)cc1	0.62	-0.4
Cc1ccc2ncnc(NC(CC(C)C)C(=O)O)c2c1 (stereo unspecified)	1.3	0.95
O=C(NCc1ccccc1Cl)C1CCCN(c2ncnc3c2nc2n3CCCCC2)C1 (stereo unspecified)	-0.24	0.15
CC12CCC(C1)C(C)(C)C2NS(=O)(=O)c1cc(Cl)c(Cl)cc1Cl (stereo unspecified)	0.29	/
O=c1[nH]oc2nc(C3CC3)cc(C(F)(F)F)c12	3.5	-0.65
CCOC(=O)c1c(CNCCN(CC)CC)n(C)c2cc(Br)c(OC)cc12	-0.065	/
O=c1c(C=NCCCn2ccnc2)c(CSc2ccc(Cl)cc2)[nH]n1-c1nc2ccccc2s1	-0.24	/
O=c1c(CN2CCN(c3ccc(F)cc3)CC2)cc2cccc3c2n1CCC3	2.7	/
Cc1noc(NS(=O)(=O)c2ccc(NC(=O)CSc3nc4c(cc3C#N)CCC4)cc2)c1C	-0.19	-0.8
NC(=S)N/N=C/c1ccc2c(c1)OCO2	0.73	/
COc1ccc(-c2nc(-c3ccc(NC(=O)c4cccs4)cc3)no2)cc1OC	-0.3	/
Cc1cc(=O)[nH]c(O)c1C#N	/	0.05
CCOc1ccc(C(=O)NCC(=O)N2CCN(Cc3ccccc3)CC2)cc1	1.1	0
O=C(O)c1ccc(-c2ccccc2)s1	26	0.75
COc1ccccc1C1NC(=O)C(=O)/C1=C(\O)c1ccc(Br)cc1 (stereo unspecified)	-0.065	/
CCOC(=O)C1=C(C)N=c2s/c(=C/c3ccc(C)cc3)c(=O)n2C1c1ccc(OC(C)=O)c(OC)c1 (stereo unspecified)	-0.42	/
CC1CN(Cc2cc(=O)n3c(-c4ccccc4)csc3n2)CC(C)O1 (stereo unspecified)	/	-0.9
O=C(NNC(=O)C(c1ccccc1)C1CCCCC1)c1cnn(-c2ccc([N+](=O)[O-])cc2)c1C(F)(F)F (stereo unspecified)	-0.9	/
CCCCCCC#CCCOC(=O)NNC(=O)c1ccc(OC)cc1	0.29	/

One compound at a time, as listed above. Order of values: CapD inh | AID504770
CCOc1ccc(C(=O)NCC(=O)N2CCN(Cc3ccccc3)CC2)cc1 is listed as 1.1 | 0
Cc1noc(NS(=O)(=O)c2ccc(NC(=O)CSc3nc4c(cc3C#N)CCC4)cc2)c1C is listed as -0.19 | -0.8
NC(=S)N/N=C/c1ccc2c(c1)OCO2 is listed as 0.73 | /

Carrying on.
SMILES	CapD inh	AID504770
COc1ccc(N2CCN(C(=O)CNC(=O)Cn3cnc4sc(C)c(C)c4c3=O)CC2)cc1	0.89	/
CCc1nn(C(=O)c2ccccc2)c2c1C(=O)CC(C)(C)C2	0.06	-0.95
O=c1oc(Nc2ccccc2)nc2ccccc12	2.6	1.3
CC1=[N+]([O-])C(C)(C)C(c2ccc(C)cc2)=[N+]1[O-]	-0.69	0.25
CCC(C)N(C(=O)CSc1nc2ccccc2n1-c1ccc(C)cc1)C1CCS(=O)(=O)C1 (stereo unspecified)	/	0.6
S=c1[nH]nc(/N=C/c2ccc(Br)cc2)n1Cc1ccccc1	/	2
COc1ccc(OCCn2c(NC(=O)c3ccco3)nc3ccccc32)cc1	1.4	0.8
Cc1ccc(S(=O)(=O)N2CCN(C(=O)c3cc(=O)[nH]c4ccccc34)CC2)c(C)c1	/	-0.2
O=C(O)CC(CC(=O)NCCc1c[nH]c2ccccc12)c1ccc(C(F)(F)F)cc1 (stereo unspecified)	-0.33	/
COc1ccc(N2CCN(C(=O)c3c[nH]c4ccc(S(=O)(=O)N5CCOCC5)cc4c3=O)CC2)cc1	0.64	/
O=C(Nc1ccc(S(=O)(=O)N2CCCCCC2)cc1)c1ccncc1	-0.04	-0.35
COc1ccccc1NC(=O)N(C1CC1)C1CCN(C)CC1	-0.38	/
O=C(O)CCC(=O)Nc1cccnc1	1.1	/
COC(=O)C1=C(C)OC(N)=C(C#N)C1c1c(F)c(F)c(F)c(F)c1F (stereo unspecified)	-0.49	/
Clc1ccc(C=NC23CN4CN(CN(C4)C2)C3)cc1	-0.6	2.5
Cc1cccc(N2C(=O)C(Oc3ccc(Cl)cc3Cl)C2C(=O)O)c1C (stereo unspecified)	-0.06	-0.05
O=C(O)COCC(=O)Nc1cccnc1	0.34	/
O=C(N/N=C/c1c[nH]c2ccccc12)c1c(O)c2cccc3c2n(c1=O)CCC3	-0.07	/
CCn1c(-c2ccc(OC)cc2)nc2ccccc21	4.7	-0.8
CC1Cc2ccccc2N1C(=O)CSC1=C(C#N)C(c2ccccc2F)CC(=O)N1 (stereo unspecified)	-0.29	-0.25
CCN(CC(=O)Nc1ccc2c(c1)OCCO2)C(=O)c1cccc(S(=O)(=O)N2CCOCC2)c1	/	0.9
O=C(CSc1nccc2ccccc12)N1CCN(c2ccccn2)CC1	0.015	-1.3
CCOC(=O)c1nnn(-c2nonc2-n2cccc2)c1C	-0.065	-0.85
CC(NC(=O)c1ccccc1N)c1ccccc1 (stereo unspecified)	125	/
Cn1c(C(C#N)C(=O)c2ccc3c(c2)S(=O)(=O)c2ccccc2C3=O)nc2ccccc21 (stereo unspecified)	/	-0.1

Rewritten field by field: entries from further up
Compound: CCn1c(-c2ccc(OC)cc2)nc2ccccc21
  CapD inh: 4.7	AID504770: -0.8

Compound: O=c1oc(Nc2ccccc2)nc2ccccc12
  CapD inh: 2.6	AID504770: 1.3

Compound: COc1ccc(OCCn2c(NC(=O)c3ccco3)nc3ccccc32)cc1
  CapD inh: 1.4	AID504770: 0.8

Compound: COc1ccc(N2CCN(C(=O)CNC(=O)Cn3cnc4sc(C)c(C)c4c3=O)CC2)cc1
  CapD inh: 0.89	AID504770: /

New compounds follow:
The line under a structure holds: CapD inh | AID504770
> O=C(O)CN1C(=O)/C(=C\c2cc([N+](=O)[O-])ccc2O)SC1=S
 : -5.2* | /
> CCCOc1ccc(C2(CNC(=O)Cc3ccc(OC)c(OC)c3)CCCC2)cc1
 : -0.33 | /
> O=C1/C(=C/c2ccc3nccnc3c2)Cc2ccccc21
 : 0.04 | -0.65
> Cc1ccc2c(c1)C=C[C@H]1N2[C@H](C(=O)c2ccccc2)[C@@H](c2ccc(Br)cc2)C1(C#N)C#N
 : 2.6 | /
> CCCNC(=O)c1oc(=O)c2ccccc2c1-c1ccc(C)cc1
 : 65 | 0.45
> CCOP(=O)(OCC)C(Nc1cccc(CC)c1)c1cc(Cl)cc(Cl)c1OC (stereo unspecified)
 : -0.39 | /
> C=CCN1C(=O)CSc2ccc(C(=O)N3CCC(C)CC3)cc21
 : / | -0.5
> Cn1cnnc1SCNC(=O)C(F)(F)F
 : / | -0.65
> CN1Cc2ccccc2N(CC(=O)NCc2ccccc2)C1=O
 : / | -1.4
> NCc1ccc2[nH]c3c(c2c1)CCCC3
 : 0.68 | -1.1
> CCCNC(=O)c1cc(C(C)C)on1
 : -0.34 | -0.1
> CCN(CC)CCNc1ccc(C(F)(F)F)cn1
 : 0.035 | -1
> COc1ccc(CCNC(=O)CCn2c(SCC(=O)NCCC3=CCCCC3)nc3ccccc3c2=O)cc1OC
 : 0.33 | /
> COc1ccc(OC)c(C2NC(=O)NC(C)=C2C(=O)OCCc2ccccc2)c1Br (stereo unspecified)
 : -0.05 | /
> CN(C(=O)c1ccc2c(c1)CCO2)C(C)(C)C
 : -0.33 | -2.5
> O=S1(=O)C=C(Sc2nc3ccccc3s2)c2ccccc21
 : / | 0.25
> Cc1nn(C(C)C(=O)N(C)Cc2ccccc2)c(=O)c2c1sc1ccccc12 (stereo unspecified)
 : 0 | 0.05
> O=C(Cn1c(=O)cnc2ccccc21)Nc1ccccc1
 : / | 1.1
> O=c1oc2ccccc2c(O)c1/C=N/N1CCOCC1
 : -0.84 | 0.05&-0.75
> Cc1ccc2c(c1)c1c(n2CCC#N)CC[N+](C)(C)C1
 : 0.2 | /
> COc1cccc(NS(=O)(=O)c2cc(C(=O)N3CCCCC3)ccc2NCc2ccccc2OC)c1
 : 3.1 | /
> O=C(NCCc1ccccc1)c1cc(S(=O)(=O)N2CCOCC2)ccc1Sc1ccc(Br)cc1
 : -0.14 | /
> COc1ccc(OC)c(-c2cn(S(=O)(=O)c3ccccc3)nc2N)c1
 : -0.45 | 0.75
> Cc1cc(C)nc(Sc2ccccc2)n1
 : / | -0.5
> CC(=O)N/N=C/c1ccc(C)c(C)c1C
 : / | -0.1
> CC1(C)C=C(C(N)=O)C(C)(C)N1OC(=O)c1ccco1
 : -0.6 | 0.95
> CCS(=O)(=O)c1nc(S(=O)(=O)c2ccc(Cl)cc2)c(NC(C)C)s1
 : -0.42 | 0.25
> CCOC(=O)c1[nH]c2ccc(OCC)cc2c1CCCN1C(=O)c2ccccc2C1=O
 : -0.015 | 0.5
> CC(C)Cc1ccc(S(=O)(=O)N2CC(C)CC(C)C2)cc1 (stereo unspecified)
 : -0.46 | /
> C/C(CN1C(=O)CCC1=O)=N/NC(=O)C1CCN(S(=O)(=O)c2ccc(C)cc2)CC1
 : 0.25 | -0.2
> Cc1ccc2nc(-c3ccc(NC(=O)c4cc(Br)ccc4Cl)cc3)oc2c1
 : 1.2 | /
> CCOC(=O)c1sc(COc2ccc(C(C)(C)C)cc2)nc1C
 : 9.4 | -0.4
> Cc1ccc(S(=O)(=O)NCC(C)(C)N2CCOCC2)cc1C
 : / | -0.2
> CCN=C(Nc1ccc(C(C)(C)C)cc1)SCC1CC1
 : 0.26 | -0.25
> Cc1cccc(-c2nnc(SCC(=O)NC(=O)Nc3ccccc3F)n2Cc2ccco2)c1
 : / | 0.45
> CCN(CC(=O)NCc1ccc(F)cc1)Cn1cnc2ccccc21
 : / | 2
> CSCCC(NC(=O)c1ccc(C(F)(F)F)cc1)C(=O)NNC(=O)CC(c1ccccc1)(c1ccccc1)c1ccccc1 (stereo unspecified)
 : -0.9 | /
